# Rango dissoc inh: inhibition of RanGTP-driven Rango-importin beta dissociation. O95149+P62826. Biochemical FRET Rango-importin beta, RanGTP-induced dissociation. Potency, µM (top dose mostly 46.1 µM), for inactives: top-dose activity change, negative = inhibition. 340,000 tested, 0.071% active. AID 540253; active means falling FRET ratio curve, often poorly fitted, with flat reads before Ran was added; inconclusive means other falling curves, or compound fluorescence or quenching; inactive means flat or rising ratio curve;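 note: potency is the fitted concentration of half-maximal effect; % of control where 0% means no effect; nearly all actives have a fitted effect of over 45% in size; -100% = wells without RanGTP and RCC1; the record marks most hits as doubtful in a second field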
#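 Two FRET readings bracket the reaction: one 5 min after compound meets Rango–importin beta, another 45 min after RanGTP-RCC1 (0.6 uM Ran, 0.2 uM RCC1, 2 mM GTP) is added. Only the second defines inhibition.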
# Rango-impB inh: prevents formation of the Rango-importin beta complex. Rango CFP/YFP FRET sensor + importin beta, 45 min. Potency, µM (titrated, usually from 92.2 µM), inactives show at the top dose inhibition of complex formation. 340,000 tested, 0.031% active. AID 540263; active = rising FRET ratio curve, often small or poorly fitted; inconclusive = mostly compound fluorescence or quenching in the first reads; inactive = flat curves in all reads;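 note: potency is the fitted concentration of half-maximal effect; 0% = DMSO wells and 100% = buffer wells lacking importin beta; nearly all actives have a fitted effect of over 15% in size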
# Target sequence (Q14974 whole entry, looked up): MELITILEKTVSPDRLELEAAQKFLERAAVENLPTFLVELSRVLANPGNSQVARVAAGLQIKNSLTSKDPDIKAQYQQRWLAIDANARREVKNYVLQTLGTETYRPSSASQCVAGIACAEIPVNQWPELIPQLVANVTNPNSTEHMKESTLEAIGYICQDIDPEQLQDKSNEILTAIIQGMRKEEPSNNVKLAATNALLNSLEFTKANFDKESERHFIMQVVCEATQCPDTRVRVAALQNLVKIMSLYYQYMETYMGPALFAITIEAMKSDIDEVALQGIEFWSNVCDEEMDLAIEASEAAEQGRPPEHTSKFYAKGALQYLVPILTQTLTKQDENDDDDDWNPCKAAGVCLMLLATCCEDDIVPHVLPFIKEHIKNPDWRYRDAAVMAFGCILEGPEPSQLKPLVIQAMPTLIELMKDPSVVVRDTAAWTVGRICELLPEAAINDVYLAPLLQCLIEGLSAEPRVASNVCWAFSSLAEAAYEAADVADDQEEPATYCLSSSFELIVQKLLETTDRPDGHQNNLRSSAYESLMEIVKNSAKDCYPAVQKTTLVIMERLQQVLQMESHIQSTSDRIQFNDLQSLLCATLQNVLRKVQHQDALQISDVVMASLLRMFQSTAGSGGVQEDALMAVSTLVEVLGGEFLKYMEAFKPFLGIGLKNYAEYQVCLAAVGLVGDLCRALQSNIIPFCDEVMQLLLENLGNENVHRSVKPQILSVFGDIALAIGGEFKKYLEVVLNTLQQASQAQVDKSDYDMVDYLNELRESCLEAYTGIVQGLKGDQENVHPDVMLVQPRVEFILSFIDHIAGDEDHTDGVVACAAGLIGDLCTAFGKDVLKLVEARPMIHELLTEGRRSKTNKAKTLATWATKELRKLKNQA
#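 FRET biosensor (snurportin 1 IBB flanked by EYFP and cerulean), 50 nM, with compound 5 min, then 0.125 microM importin beta in PBS, 1 mM DTT, 0.02% Tween-20, 0.1% BSA. CFP/YFP ratio read after 45 min at room temperature; pre-read flags interference.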
# miR-21 FLuc: raises the signal of a miR-21 reporter; HeLa miR-21 FLuc reporter, luciferase, 48 h; Potency, µM (titrated, usually from 38.3 µM), inactives show at the highest dose reporter change, positive = more light; 340,000 tested, under 10 active; AID 2288; active = well fitted rising curve with a large enough effect; inconclusive = small, poorly fitted or top-dose-only effect; inactive = no such curve, though single readings can be large or run the other way;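 note: % of control where 0% means no effect; miR-21 action dims this reporter so a rising signal means less miR-21 action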
#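 HeLa miR-21-FLuc reporter line, endogenous miR-21; 2000 cells/well in DMEM/10% FBS; compound titration up to ~40uM final, 48 h, 37 degree Celsius; luciferase detection reagent, 15 min lysis, CCD luminescence.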
# GLA inh pH 4.5: inhibitors of human alpha-galactosidase A at pH 4.5; P06280; purified enzyme, 4-MU-alpha-Gal fluorescence, pH 4.5; activity change, negative = inhibition, % at 105 µM; 230,000 tested, under 10 active; AID 1467; inconclusive = small, poorly fitted or top-dose-only inhibition, or a rising curve; inactive = flat fitted curve, though single readings scatter; no compound was filed as active;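 note: 0% = full activity with enzyme and -100% = basal without enzyme; dose as in the result columns while the protocol names 77 µM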
# Active calls of the source: *; ? = inconclusive; · = no result given; [ ] = another dose, or the depositor's remark. The list is partial; count on the stated rates, not on these rows.
SMILES,Rango dissoc inh,Rango-impB inh,miR-21 FLuc,GLA inh pH 4.5
c1ccc(-c2cc(-c3nn4c(-c5ccco5)nnc4s3)c3ccccc3n2)cc1,11%,0.0%,-2%,-9
CN1CCN(C(=S)NC(=O)c2ccc(S(=O)(=O)N3CCOCC3)cc2)CC1,3%,-1.2%,-1%,0
S=c1[nH]nc(C2CCCCC2)n1/N=C/c1cccc(Br)c1,17%,-1.8%,-3%,·
CCc1ccc(NC(=O)C2CCCN2C(=O)NC2CCCCC2)cc1 (stereo not given),14%,3.3%,1%,·
O=C(Oc1ccccc1Cl)c1ccc2c(=O)n3c(nc2c1)CCC3,2%,-0.3%,·,·
CCC(CC)c1nnc(NC(=O)C23CC4CC(CC(NC(C)=O)(C4)C2)C3)s1,2%,0.5%,3%,·
COc1ccc(N2Cc3ccccc3/C2=N\C(=O)Nc2ccccc2)cc1,-3%,2.0%,-21%,-8
CCC(C)NC(=O)CC1Oc2ccc(C)cc2NC1=O (stereo not given),2%,-0.3%,-2%,1
O=C(COc1ccc2oc(-c3ccccc3)cc(=O)c2c1)NCc1ccco1,0%,0.6%,-36%,1
Fc1cccc(CNC2CCN(CCc3ccccc3)CC2)c1,21%,-0.3%,0%,·
Cc1ccccc1-n1c(SCc2csc(Nc3ccccc3)n2)nnc1-c1cccnc1,-15%,1.3%,?,-6
CCc1ccc(NC(=O)c2cnc(N3CCN(c4ccccn4)CC3)c3ccccc23)cc1,0%,-15%,18%,8
O=C(CNC(=O)c1ccccc1Cl)c1ccccc1,11%,-3.7%,-37%,·
O=C1OC(C(=O)NCc2ccccc2)Cc2ccccc21 (stereo not given),-21%,1.4%,-2%,-2[21.1 µM]
O=C(CCc1nc2ccccc2c(=O)[nH]1)Nc1ccccc1N1CCCC1,1%,0.2%,·,·
CSc1ccccc1NC(=O)CSc1n[nH]c(C)c1[N+](=O)[O-],15%,-1.1%,-7%,-7
CCOc1ccccc1CNS(=O)(=O)c1ccc2[nH]c(=O)sc2c1,4%,-1.9%,0%,-2
Cc1cccc(/C=C(\C(=O)O)c2ccc(S(=O)(=O)N3CCCC3)s2)c1,9%,-0.7%,·,·
O=C(/C=C/c1ccccc1[N+](=O)[O-])Nc1cccc(S(=O)(=O)NC2=NCCCCC2)c1,-1%,-0.9%,·,·
CC(C)(C)OC(=O)N/N=C\C=C\c1ccc2c(c1)OCO2,2%,0.3%,-66%,0

# 3 structures from above, sorted by molar mass, high to low:
SMILES,Rango dissoc inh,Rango-impB inh,miR-21 FLuc,GLA inh pH 4.5
Cc1cccc(/C=C(\C(=O)O)c2ccc(S(=O)(=O)N3CCCC3)s2)c1,9%,-0.7%,·,·
O=C(COc1ccc2oc(-c3ccccc3)cc(=O)c2c1)NCc1ccco1,0%,0.6%,-36%,1
CCOc1ccccc1CNS(=O)(=O)c1ccc2[nH]c(=O)sc2c1,4%,-1.9%,0%,-2

# (cont.)
SMILES,Rango dissoc inh,Rango-impB inh,miR-21 FLuc,GLA inh pH 4.5
CSc1cccc(-c2nnc(NC(=O)c3cccc(N4C(=O)CCC4=O)c3)o2)c1,-11%,-5.4%,·,·
Cc1ccc(S(=O)(=O)N2CCC[C@H]2C(=O)Oc2ccccc2)cc1,1%,-3.1%,·,·
CCc1ccc2oc(=O)cc(CN3CCN(c4ccc(F)cc4)CC3)c2c1,-17%,?,-7%,1
NC(=N\N=CCc1ccccc1)/C(N)=N/N=CCc1ccccc1,-13%,0.9%,·,·
Cc1c(C(=O)Oc2cccc3ccccc23)cnn1-c1ccccc1,0%,-1.3%,-44%,-4
Cn1c(=O)[nH]c(=O)c2c1nc(N1CCCCCC1)n2CCN1CCCCCC1,8%,1.3%,-5%,2
COc1cc(CC(=O)N2CCN(C(=O)C3CCCO3)CC2)cc(OC)c1OC (stereo not given),-2%,3.1%,·,·
C=CCn1c(C(C)NC(=O)C(C)(C)C)nc2ccccc21 (stereo not given),2%,1.3%,-9%,12
CCOc1ccc(-n2c(Cc3ccccc3)nnc2SCc2c(C)noc2C)cc1,-1%,3.8%,1%,-1
Cn1c(N)c(S(=O)(=O)N2CCN(Cc3ccccc3)CC2)c(=O)n(C)c1=O,-9%,4.5%,0%,3
Cc1ccc(C)c(OCCC(=O)OCC(=O)Nc2cc(S(=O)(=O)N3CCOCC3)ccc2C)c1,15%,-5.1%,·,·
Cn1cnnc1Sc1ccc(S(C)(=O)=O)cc1[N+](=O)[O-],-13%,3.4%,0%,2
Cc1ccc(CCNC(=O)CCn2ccc3cc(S(=O)(=O)N4CCCC4)ccc32)cc1,-12%,0.6%,6%,·
Cc1cccc(C(=O)OCC(=O)N2CC(C)OC(C)C2)c1C (stereo not given),0%,3.5%,-5%,·
O=C(NCc1ccco1)c1ccc2nccnc2c1,5%,-2.3%,2%,·
Cc1cc(C(=O)Nc2ccc3ccccc3c2)oc1C,-11%,2.1%,-62%,·
COc1ccccc1C(=O)NC(CCSC)C(=O)N1CCN(C/C=C/c2ccccc2)CC1 (stereo not given),-11%,8.3%,·,·
Cn1c(/C(C#N)=C/C2CC=CCC2)nc2ccccc21 (stereo not given),-8%,?,-9%,6
Cc1sc2nc(CN3CCCCC3)nc(Cl)c2c1C,10%,0.9%,-23%,6
CN(Cc1ccccc1)C(=O)CCC1CCN(S(C)(=O)=O)CC1,-15%,-0.3%,-1%,·

# Two compounds drawn at random from those above:
SMILES,Rango dissoc inh,Rango-impB inh,miR-21 FLuc,GLA inh pH 4.5
Cc1sc2nc(CN3CCCCC3)nc(Cl)c2c1C,10%,0.9%,-23%,6
CSc1cccc(-c2nnc(NC(=O)c3cccc(N4C(=O)CCC4=O)c3)o2)c1,-11%,-5.4%,·,·

# Next section:
SMILES,Rango dissoc inh,Rango-impB inh,miR-21 FLuc,GLA inh pH 4.5
COc1cc(C(=O)NNC(=O)NC2CCCCC2)cc(OC)c1OC,1%,0.5%,-5%,-1
O=[N+]([O-])c1ccc(C(O)C(CO)NC(=S)Nc2ccccc2)cc1 (stereo not given),-12%,0.6%,15%,2
COc1ccccc1OCC(=O)NCCS(=O)(=O)N1CCN(c2ccc(F)cc2)CC1,5%,0.1%,5%,·
CCC(=O)Nc1cccc(-c2ccc(N3CCN(C)CC3)nn2)c1,1%,-2.6%,-17%,·
Cc1ccc(-c2cc(C(=O)N3CCc4ccccc4C3)[nH]n2)cc1C,29%,?,-4%,·
C=C1C(=O)C23CCC4C(C)(C(=O)OC)CCCC4(C)C2CCC1(O)C3 (stereo not given),-7%,1.5%,·,·
CC1CCc2c(sc(N)c2C(=O)OC(C)C)C1 (stereo not given),-3%,1.3%,-1%,-6
O=C(Nc1ccc(Br)cn1)c1ccc(COc2c(F)c(F)cc(F)c2F)o1,0%,-0.4%,·,·
COc1ccccc1C(=O)Nc1ccc(C(=O)Nc2ccccc2C(=O)O)cc1,5%,1.0%,-5%,·
CCc1ccc(Nc2ncc3c(n2)CC(c2ccco2)CC3=O)cc1 (stereo not given),-19%,-0.9%,-13%,3
O=C(/C=C/c1ccc(Br)cc1)Nc1ccc(S(=O)(=O)Nc2ncccn2)cc1,2%,1.9%,-7%,9
COc1ccc(N2CCN(C(=O)c3sc4nc(-c5ccc(F)cc5)cn4c3C)CC2)cc1,8%,0.3%,1%,10
Cc1cc(C(=O)NC(=S)Nc2cccc(C(=O)O)c2C)ccc1[N+](=O)[O-],10%,1.0%,-6%,7
Cc1cc(C)c(NC(=O)CO/N=C2\CCCc3nonc32)c(C)c1,-6%,-4.5%,-6%,9
Cc1ccc(NC(=O)CN2C(=O)N/C(=C/c3ccco3)C2=O)cc1,-5%,-0.3%,-3%,-17
CC1CCN(c2nc3c(c(=O)n(C)c(=O)n3C)n2CCSc2nc3ccccc3s2)CC1,14%,-1.4%,-3%,-6
CCOC(=O)C(O)(CC(=O)c1ccc(Cl)cc1)C(=O)OCC,-21%,-1.7%,-2%,6
Cc1ccc(S(=O)(=O)Nc2ccccc2F)cc1C(=O)NNC(=O)c1csc(N2CCOCC2)n1,-7%,8.4%,·,·
COc1ccc(Nc2nc(N)c([N+](=O)[O-])c(NCCO)n2)cc1,-10%,-0.2%,-21%,-14
Brc1ccc(/C=N/Nc2ccccc2)cc1,2%,0.5%,-22%,0
COc1ccc(NC(=O)CSCc2cc(=O)n3cc(C)sc3n2)cc1,-6%,0.8%,3%,·
Cc1nnc(SCC(=O)N2c3ccccc3C(C)(c3ccc(Cl)cc3)CC2(C)C)s1 (stereo not given),-3%,2.2%,15%,1
O=S(=O)(Nc1ccc2c(c1)OCCO2)c1cccc2cccnc12,-16%,-0.2%,-5%,5
CCC(NC(=O)CC[C@H]1O[C@@H](n2cc(C)c(=O)[nH]c2=O)C[C@@H]1O)c1ccccc1 (stereo not given in full),-11%,2.6%,·,·
Cc1nc2c(C(=O)O)cnn2c(C)c1Cc1ccccc1F,-5%,0.1%,-4%,-4
CCOC(=O)N1CCN(C(=O)C2CC(=O)N(Cc3ccc(OC)cc3)C2)CC1 (stereo not given),25%,1.0%,-8%,4
CC(=O)Nc1ccc(NC(=O)CSc2ncnn2-c2ccccc2)cc1,17%,-0.3%,0%,-3
CCN(C[C@H]1N[C@@](Cc2ccccc2)(C(=O)OC)[C@H]2C(=O)N(C)C(=O)[C@@H]12)C(C)=O,0%,-1.0%,·,·
Cc1cc(-c2ccccc2)c(C#N)c(SCC(N)=O)n1,14%,0.6%,-1%,-2
COc1ccc(NC(=O)Oc2ccccc2)cc1Cl,21%,-1.0%,-22%,·
O=C(Nc1cccc(Cl)c1)c1cc([N+](=O)[O-])ccc1N1CCN(CCO)CC1,17%,-2.3%,-16%,1
CCOc1ccc(N2CC(O)Cn3c2nc2c3c(=O)n(CCCc3ccccc3)c(=O)n2C)cc1 (stereo not given),35%,-0.4%,14%,-5
C/C(=N\NC(=O)c1cccnc1)c1cccc([N+](=O)[O-])c1,-1%,0.8%,-11%,5
CCc1ccc(C(=O)Nc2cc(C)on2)o1,-9%,-0.2%,-44%,·
Cc1cc(-c2nnc(-c3cccc(C(F)(F)F)c3)o2)no1,1%,-0.8%,-52%,-10
COc1cc(Cl)c(S(=O)(=O)NCCCn2ccnc2)cc1Cl,-5%,0.2%,-14%,·
Cc1nc2ccccc2c2oc(C(=O)N3CCCC(C)C3)cc12 (stereo not given),-7%,1.4%,-15%,·
O=C(c1cc(S(=O)(=O)N2CCCCC2)ccc1Cl)N1CCOCC1,4%,?,1%,·
O=C(CCCOc1ccc(Cl)cc1)NCCc1ccccc1,9%,-2.1%,-4%,·
CCOC(=O)c1sc2cccc(Cl)c2c1N,4%,-0.8%,-13%,-5
Cc1nnc(NC(=O)CSc2nccn2-c2ccc(F)cc2)s1,-14%,0.0%,-1%,0
N#Cc1ccc(-c2ccc(OCC(=O)NN=Cc3ccncc3)cc2)cc1,-12%,-1.7%,·,·
O=C(Cc1ccccc1)Nc1ccc(NC(=O)c2cccs2)c(Cl)c1,-7%,1.3%,-29%,12
C=CCOc1ccc(/C=C2/C(=O)ON=C2C)cc1OCC,15%,2.9%,2%,·
O=C(CC1CCC1)Nc1cccc2c([N+](=O)[O-])cccc12,-19%,-0.1%,·,·
CCOC(=O)C(=O)Nc1nnc(Cc2ccc(OC)c(OC)c2)s1,2%,0.2%,2%,-8
Cc1c(NC(=O)COC(=O)c2ccc(S(=O)(=O)N3CCOCC3)cc2)c(=O)n(-c2ccccc2)n1C,6%,2.1%,-3%,-10
COc1cc(C(=O)N(C)CC(=O)Nc2cccc(F)c2)ccc1OCc1ccccc1,0%,-2.7%,·,·
Cc1cc(/C(N)=N/OC(=O)c2ccc(Cl)cc2)no1,26%,-0.4%,-62%,-4
COc1cc(/C=C2\Oc3ccc(C#Cc4ccc(O)cc4)cc3C2=O)cc(OC)c1,5%,2.9%,·,·
COc1ccc(NC(=O)CC(C)C)c(OC)c1,1%,-3.0%,0%,-18
COc1ccccc1OCC(=O)NCC1CCCN(C(=O)c2ccccc2C(C)=O)C1 (stereo not given),8%,0.2%,-6%,·
COc1ccccc1NS(=O)(=O)c1ccc2oc(SC3CCOC3=O)nc2c1 (stereo not given),-1%,1.2%,-1%,-8
COc1ccc(/C=C/CN2CCN(CCc3ccccc3)C(CCO)C2)cc1 (stereo not given),-2%,0.3%,0%,-17
